Screening results deposited in PubChem BioAssay by several laboratories.
Mtb hypoxia rep = PubChem AID 1159583 | M. tuberculosis hypoxia-regulated fluorescent reporter, fluorescence | fluorescence inhibition, % (no concentration beside the values) | 0.1% of 300,000 active;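 active = 35 to 45% if threefold the growth effect, above 45% if 1.5-fold the growth effect; inactive = the rest, general growth blockers included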;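 note: wells of about 50 µL received 100 nL stock; 0% = vehicle wells and 100% = reference inhibitor wells; whole bacteria with a GFP reporter of the hypoxia response; strong numbers were not always called active; many hits fall short of the cut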
Bead autofluor = counter-screen for toxin protease inhibitors: compound fluorescence. compound autofluorescence counterscreen, microsphere flow cytometry; hits give high values. 3.1% of 360,000 active. fluorescence intensity (test concentration not listed). AID 624483;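 active = at least 3 SD above the mean of all compounds, about 16000 in these data; inconclusive = too few beads counted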;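 note: 100 nL of 1 mM stock went into each well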
Sa ugtP lethal = growth inhibition of ugtP-null S. aureus, primary screen, RN4220 ugtP deletion, OD600. 16 h; some inactives read as strong as hits. growth inhibition, % (concentration not given with the values). 0.54% of 330,000 active;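 active = z-score under -3 and OD600 up to 0.15 on both plates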;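 note: plate controls were untreated wells for no effect and antibiotic for full effect; wells of about 80 µL received 100 nL stock; the first replicate is given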
BJeLR lethal = MLPCN primary cell-based screen for lethality selective to Ras in HRASV12 cells; BJeLR (HRASV12) viability, CellTiter-Glo ATP luminescence, 48 h; reference of the scale not given here; inhibition, % (no concentration beside the values); 0.17% of 300,000 active; AID 1554, 2009;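 active = replicate mean above 50%; inconclusive = above 50% but judged a plate artefact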;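 note: 50 nL library stock added to about 25 µL; numbers are from one replicate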
RN4220 kill = growth inhibition of S. aureus RN4220, primary screen, OD600 | 16 h | inhibition, % (test concentration not listed) | 0.33% of 330,000 active | AID 1259311, 2017;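 active = z-score of -3 or lower and OD600 up to 0.18 on both plates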;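 note: plate controls were untreated cells for no effect and reference antibiotic for full effect; stock transfer was 100 nL into about 80 µL; one replicate is shown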
PrP 5UTR inh = inhibition of PrP 5' UTR reporter expression; 0.35% of 340,000 active; inhibition, % (test concentration not listed); cell-based PrP 5' UTR mRNA reporter, plate reader;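 active = every replicate at 50% or more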;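 note: 0 = median of the neutral control wells; tested in H4 reporter cells; numbers are from one replicate; inactives centre near -14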
Mtb hypoxia rep growth = further read-out of Mtb hypoxia rep, marked with its call; growth inhibition, %; measured here: M. tuberculosis growth (absorbance);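 0% = vehicle and 100% = reference antibiotic; read after six days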
Active calls of the source: *; ? = inconclusive; nt = not tested or not shown. This is a random part of the collection; about 3.9% have a hit in one of these screens.

Sample of the layout (4 entries):
SMILES	Mtb hypoxia rep	Mtb hypoxia rep growth	Bead autofluor	Sa ugtP lethal	BJeLR lethal	RN4220 kill	PrP 5UTR inh
O=C(COC(=O)COc1ccc(Cl)cc1)NCc1ccc2c(c1)OCO2	11.1	4.3	3887	3.1	nt	1.3	-24.2
Cc1nc2ccc(C(=O)OCc3nnc(-c4ccccc4)o3)cc2nc1C	4.0	4.9	5373	-3.5	-1.7	-0.2	-16.9
O=C(CCn1c(=O)oc2ccccc21)NCCCN1CCCC1=O	-2.6	15.0	5757	5.3	-1.8	9.8	-9.1
CN1CCCN(C(=O)c2cc(-c3cccc4ccccc34)nc3ccccc23)CC1	-8.0	8.9	4460	7.0	3.7	0.3	-12.7

The whole of this part, previewed entries included:
SMILES	Mtb hypoxia rep	Mtb hypoxia rep growth	Bead autofluor	Sa ugtP lethal	BJeLR lethal	RN4220 kill	PrP 5UTR inh
O=C(COC(=O)COc1ccc(Cl)cc1)NCc1ccc2c(c1)OCO2	11.1	4.3	3887	3.1	nt	1.3	-24.2
Cc1nc2ccc(C(=O)OCc3nnc(-c4ccccc4)o3)cc2nc1C	4.0	4.9	5373	-3.5	-1.7	-0.2	-16.9
O=C(CCn1c(=O)oc2ccccc21)NCCCN1CCCC1=O	-2.6	15.0	5757	5.3	-1.8	9.8	-9.1
CN1CCCN(C(=O)c2cc(-c3cccc4ccccc34)nc3ccccc23)CC1	-8.0	8.9	4460	7.0	3.7	0.3	-12.7
O=C(O)c1cc(N2C(=O)C3CCCCC3C2=O)ccc1NCc1cccnc1 (stereo not given)	7.3	-5.2	3311	3.4	-0.1	0.8	-3.4
CCC(NC(=O)NC1CCCCC1)c1ccccc1 (stereo not given)	9.6	0.4	2207	7.5	-8.0	1.6	-20.8
CCOc1ccc(C2C(C#N)=C(N)Oc3nc[nH]c(=O)c32)cc1OC (stereo not given)	10.0	0.6	8955	2.6	-6.5	1.1	-21.4
CCn1cc(CNC(=O)c2cccc([N+](=O)[O-])c2)cn1	7.0	7.4	2545	9.4	-5.6	3.3	-8.0
Cn1c(N2CCOCC2)c(/C=N/OC(=O)c2cccnc2Cl)c2ccccc21	nt	nt	2445	nt	-15.0	nt	0.2
CCOC(=O)N1CCN(C(=O)Nc2cccc(Cl)c2)CC1	12.4	10.6	19827*	2.3	5.9	3.3	-1.2
O=c1c(C=Nc2cccnc2Cl)c(O)n(CCCCl)c(=O)n1C1CCCCC1	-5.2	5.8	2564	9.7	-5.8	4.5	-15.7
CCOC(=O)N1CCN(C(=O)c2ccc(OC)cc2)CC1	12.3	0.0	4500	6.4	-14.3	4.6	-2.9
CCOC(=O)c1sc2ccc(S(=O)(=O)N3CC(C)CC(C)C3)cc2c1N (stereo not given)	-5.9	4.7	8118	-4.0	10.8	0.3	-83.9
Cn1c(=O)cc(OCCCC(=O)NCc2ccccn2)c2ccccc21	6.4	2.1	?	7.8	0.6	2.8	-19.1
O=C(COC(=O)c1cccnc1)NC1CCCc2ccccc21 (stereo not given)	9.1	13.3	11355	11.5	nt	5.5	-9.0
CCC(CC)c1nnc(NC(=O)CCS(=O)(=O)Cc2ccccc2)s1	3.9	-1.8	5517	-0.7	3.4	-4.7	-13.5
CC[n+]1ccc2cc(OC)c(OC)cc2c1Cc1ccc(OC)c(OC)c1	nt	nt	4566	nt	-0.5	nt	-18.0
CCC(=O)N(Cc1ccco1)Cc1cc2cc3c(cc2[nH]c1=O)OCO3	6.5	15.9	4967	3.3	-5.3	8.2	0.3
Cc1ccc(NC(=S)c2ccncc2)cc1	1.3	-5.5	5920	7.7	4.5	2.1	-35.3
COc1ccc(C)cc1NC(=O)CN1C(=O)COc2ccc(C)cc21	5.3	-2.5	3642	-0.3	-6.2	-1.5	9.8
C=CCC1(C)C(=O)N(c2ccccc2)c2ccccc21 (stereo not given)	-1.2	-8.1	7646	3.5	7.9	1.5	-6.0
OCC[C@@H]1C[C@@H](O)[C@H](O)[C@]2(CCCO2)O1	nt	nt	3890	nt	-2.5	nt	0.6
CCN1CCN(C(=O)C(=O)c2cn(CC(=O)N3CCCCCC3)c3ccccc23)CC1	2.9	5.4	7481	2.3	1.0	0.3	0.0
Cc1ccc(/C=N/NC(=O)c2ccc(Cn3cc([N+](=O)[O-])cn3)o2)cc1	nt	nt	2075	nt	2.8	nt	-8.4
COc1ccc(OC)c(Nc2nc(N(C)c3ccccc3)nc(N)c2[N+](=O)[O-])c1	nt	nt	4071	nt	2.3	nt	-21.3
c1ccc(Nc2nc(N3CCCC3)nc(N3CCOCC3)n2)cc1	-2.3	-3.9	2958	-1.1	-0.1	2.4	-5.9
NC(=O)c1ccccc1NC(=O)c1ccc2c(c1)OCO2	0.9	-6.0	3472	3.4	5.4	1.9	-89.3
COc1ccc(S(=O)(=O)Cc2ccc(C(=O)NCCc3cc(OC)ccc3OC)o2)cc1	2.1	6.4	5681	9.1	-8.9	2.1	4.2
CCOC(=O)c1c(-c2ccc(C)cc2)csc1NC(=S)NC(=O)c1ccccc1	9.7	7.6	4494	34.4	10.0	-2.0	-20.1
COc1ccc2oc(C(=O)OCC(=O)NCCc3ccccc3)c(C)c2c1	-0.5	2.9	?	5.2	2.0	1.7	-51.4
COC(=O)CCC(=O)c1oc2ccc(OC)cc2c1N	18.6	8.0	2924	-11.7	11.2	-12.6	-29.0
COC(=O)c1ccccc1-n1c(CCC(=O)O)ccc1-c1ccccc1	1.9	-3.0	3510	18.6	-5.1	10.4	-44.2
CN(C)c1nnnn1Cc1ccccc1	1.7	5.6	2532	-4.2	-1.4	5.7	-6.5
Cn1c(Cn2nnc3ccccc32)nnc1SCC(=O)c1ccccc1F	2.6	1.8	8077	0.8	-4.3	8.9	-14.4
Cc1nc2sc(C(c3ccc(Cl)cc3)N3CCN(c4ccccc4F)CC3)c(O)n2n1 (stereo not given)	nt	nt	4557	-6.5	-1.9	4.1	-23.3
CC(NC(=O)[C@H](C)NC(=O)c1ccco1)c1ccc(S(N)(=O)=O)cc1 (stereo not given in full)	7.2	-6.3	3705	8.3	-6.1	0.9	-25.1
CSc1ccc(CN2CCCCCC2)cc1	21.0	10.4	4233	4.2	-5.7	2.1	-15.8
CCOc1ccccc1-c1nnc(SCC(=O)NC2CC2)n1CC	-5.7	8.4	?	-2.2	-10.6	-0.9	4.3
Cc1ccc(NCC(=O)N=Nc2c(O)[nH]c3ccc([N+](=O)[O-])cc23)cc1	-16.3	3.9	nt	-8.6	-2.5	-0.4	nt
Cc1csc(=O)n1CCC(=O)OCC(=O)c1ccc(Br)cc1	-4.2	3.4	5665	-4.6	-9.5	3.6	-13.5
CCNC(=S)Nc1ccc(Cl)cc1Cl	10.3	10.9	2172	-1.9	0.3	3.3	4.1
Oc1ccccc1C=NNC(=S)Nc1ccc(F)cc1	-9.1	4.3	3710	-30.9	nt	1.3	-4.4
O=C(COc1ccccc1)NCc1nnc2c3ccccc3c(-c3ccccc3)nn12	1.1	6.1	2430	-24.3	17.1	-7.1	-6.4
Cc1cc(-c2n[nH]c(=S)n2/N=C/c2ccc(C)o2)n[nH]1	nt	nt	3054	nt	-1.3	nt	-15.7
COc1ccc(CCNCc2ccsc2)cc1OC	9.9	3.0	4135	2.6	-6.3	2.7	-3.1
C1CCc2c(nc3nnnn3c2N2CCOCC2)C1	nt	nt	nt	1.3	3.4	-2.3	0.6
Cc1ccc(C(=O)NC23CC4CC(CC(C4)C2)C3)c(Cl)c1	5.6	11.4	3922	2.2	-5.4	3.4	-25.7
Cc1c(Cl)cccc1NC(=O)COC(=O)c1ccc(CN2CCCC2=O)cc1	0.7	10.0	3889	3.8	nt	3.1	-7.3
Cc1cc(C)c(C)c(Oc2ncnc(N)c2[N+](=O)[O-])c1	nt	nt	2602	-1.2	-10.8	4.4	-20.9
COc1ccc(/C=C(\NC(=O)c2ccc(C)cc2)C(=O)NCCCN2CCOCC2)cc1OC	3.2	-2.3	3915	-1.2	-4.2	0.8	-20.1
CCN(CC)CCN(C(=O)C1=COCCO1)c1nc2cc(C)cc(C)c2s1	nt	nt	5992	10.9	5.8	-1.1	-1.5
NC(=O)C1(N2CCCCC2)CCN(Cc2ccccc2)CC1	6.3	13.1	5778	2.8	3.1	1.9	-14.9
O=C(COc1ccc2ccccc2c1)N1CCN(c2ccccc2O)CC1	nt	nt	4050	-1.0	2.7	-6.1	-12.1
CC(=O)N1CCN(CC(=O)Nc2cc(S(=O)(=O)N3CCOCC3)ccc2C)CC1	-2.3	6.6	3338	1.7	-2.0	2.0	-10.5
COc1ccc(Nc2nc(-c3cccs3)nc3ccccc23)cc1	-3.0	-4.2	1872	95.4*	-3.8	10.5	0.8
O=c1c2ccccc2c(C=NCCCN2CCOCC2)c(O)n1Cc1ccc2c(c1)OCO2	8.6	0.7	3198	20.2	8.2	5.0	-10.6
COc1ccc(CN2C(=O)C(C)Oc3ccccc32)cc1 (stereo not given)	-6.0	1.0	4306	-2.9	-0.4	5.3	-15.9
CCN(CC)C(=O)[C@H]1CC(CC(=O)NCc2ccc(OC)c(OC)c2)C(=O)N2CCc3c([nH]c4ccc(OC)cc34)[C@]12C (stereo not given in full)	-9.9	0.6	3668	3.6	nt	2.0	-8.2
c1ccc(-n2ncc3c(N4CCC5(CC4)OCCO5)ncnc32)cc1	nt	nt	2451	2.7	5.2	1.0	-72.4
O=C(N=Nc1c(O)[nH]c2ccc([N+](=O)[O-])cc12)c1cc(-c2ccccc2Cl)nc2ccccc12	4.5	5.0	2405	1.7	nt	6.7	-24.6

More records follow.
SMILES	Mtb hypoxia rep	Mtb hypoxia rep growth	Bead autofluor	Sa ugtP lethal	BJeLR lethal	RN4220 kill	PrP 5UTR inh
COc1ccc(NC(=O)c2cc(C)nn2-c2ccccc2)cc1	16.0	9.9	3925	6.5	-0.9	1.8	-24.3
CC(C)C(=O)Nc1c2c(nn1-c1ccc([N+](=O)[O-])cc1)CS(=O)(=O)C2	7.2	-0.6	3899	7.9	2.4	4.9	-56.7
CC(=O)c1ccc(NC(=O)COC(=O)c2c[nH]c3ccccc23)cc1	9.5	4.8	3944	-5.8	nt	4.4	-12.6
COc1cccc(-c2c(C(=O)NN=Cc3sccc3C)nnn2-c2nonc2N)c1	4.7	2.4	nt	-1.2	nt	8.5	nt
O=C(CN1C(=O)c2ccccc2S1(=O)=O)Nc1cccnc1	nt	nt	2553	-0.4	1.0	0.8	-39.9
O=C1CC(c2ccc3ccccc3c2)NN1 (stereo not given)	-0.4	9.9	3779	-6.3	nt	-10.5	-17.5
COc1ccccc1NC(=O)c1ccc(NC(=O)CNC(=O)c2ccc(OC)c(OC)c2)cc1	3.6	12.1	5845	-2.2	-9.4	1.1	-10.7
CC(C)CC(=O)NC(=S)NNC(=O)c1cccc([N+](=O)[O-])c1	9.3	3.6	3422	-9.3	9.3	12.0	-27.4
Fc1cccc(CN2CCN(C(=S)NCCc3ccccc3)CC2)c1	-4.5	9.0	2079	-3.1	-2.1	-2.4	-5.4
Cc1nn(Cc2ccccc2)c(Cl)c1/C=N/NC(=O)c1cccnc1	nt	nt	2135	nt	4.1	nt	-14.8
Cc1onc(NC(=O)NC(=O)c2ccccc2F)c1Br	0.9	3.9	5188	0.9	3.4	-0.1	-42.4
CCOCCCn1c(=S)[nH]c2ncccc2c1=O	17.5	16.9	8830	-3.7	2.4	6.4	-17.3
O=S(=O)(c1cccc(F)c1)N1CCN(c2nc(-c3cccnc3)nc3ccccc23)CC1	4.3	2.9	3673	0.0	nt	-1.6	-0.2
O=C(c1cnsn1)N1CCCC(Nc2ccc(F)c(F)c2)C1 (stereo not given)	6.9	3.4	4852	1.4	6.6	1.7	-14.0
C[C@]12CCC(=O)C=C1CC[C@@H]1[C@@H]2CC[C@]2(C)C(=O)CC[C@@H]12	nt	nt	6124	nt	-4.6	nt	5.8
CC1=CC=CC2=N/C(=N\S(=O)(=O)c3ccc(F)cc3F)c3ccccc3CN12	nt	nt	3321	nt	0.4	nt	-6.2
CN(C)C(=O)Cn1c(=O)n(C)c2ccccc21	6.7	10.8	22347*	-0.5	7.9	3.3	-8.7
Cc1cnc(C(=O)NCC(c2ccccc2)c2ccccc2)cn1	12.6	2.9	3332	6.1	-2.3	0.2	-10.8
O=C(NCCN1CCCC1)c1ccc2c(c1)N(Cc1cccc(Cl)c1)C(=O)c1ccccc1S2(=O)=O	4.5	0.6	5669	-2.4	1.4	-4.0	-14.6
CC1N(C)c2cccc3cccc(c23)N1C	21.6	14.2	10973	-4.9	-11.1	0.7	-17.1
